Resorufin fluor: resorufin region autofluorescence | Compound fluorescence, resorufin region 547/598 nm, buffer; active compounds read high | max dye-equivalent concentration, M | 59,000 compounds, 0.04% hits | AID 588; active = above 10 nM dye equivalent; inconclusive = 1 to 10 nM; inactive = 1 nM or less; a few of its hits are not listed in these tables; note: highest value over a series up to 38 µM
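Dye-equivalent concentration values derive from comparing each well's 547/598 nm fluorescence against resorufin standards included on every plate. Incubation was 15 min at room temperature in 100 mM Tris, pH 8.0.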
A647 fluor: compound fluoresces in the A647 spectral region. 59,000 tested, under 10 active. max dye-equivalent concentration, M. AID 592. Compound fluorescence, A647 channel (570/671 nm), Tris buffer; active means above 1 µM dye equivalent; inconclusive means 0.1 to 1 µM; inactive means 0.1 µM or less;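 note: values scaled relative to a standard on each plate; highest value over a series up to 38 µM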
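Compound fluorescence was measured in 100 mM Tris buffer, pH 8.0, after 15 min at room temperature, using 570 nm excitation and 671 nm emission filters. Signal was normalized to a per-plate Alexa 647 standard curve and expressed as dye-equivalent concentration at each compound concentration.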
A488 autofl: A488 region autofluorescence | 59,000 compounds, 0.1% hits | AID 591 | max dye equivalency, M | compound autofluorescence, A488 spectral region, dye equivalency; active compounds read high; active = above 10 nM dye equivalent; inconclusive = 1 to 10 nM; inactive = 1 nM or less; about half of its hits are not listed in these tables;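 note: highest value over a series up to 38 µM; compound alone in buffer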
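Compounds pin-transferred into 100 mM Tris buffer, pH 8.0, incubated 15 min at room temperature, then imaged with 480 nm excitation/540 nm emission filters. Fluorescence converted to Alexa 488 dye-equivalent concentration via an on-plate six-point A488 standard curve.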
AID923: qHTS Assay for Allosteric/Competitive Inhibitors of Caspase-1: Spectroscopic Profiling in AFC Spectral Region. compound fluorescence, AFC spectral region (405/520 nm); almost no hit is shown here. Potency, µM (series often up to 57.5 µM), for inactives: at the highest dose fluorescence increase, usual class: activators. 75,000 compounds, 1.1% hits. AID 923, 2007; active = well fitted activation curve with a large enough effect; inconclusive = small, poorly fitted or top-dose-only effect;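 note: potency is the fitted concentration of half-maximal effect; 0% is about no effect; scaled to a free AFC standard on each plate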
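Compound autofluorescence profiled at 405 nm ex/520 nm em during kinetic caspase 1 run (50 nM enzyme, 5 uM Ac-WEHD-AFC, HEPES pH 7.5, 10 mM DTT). Titration up to 57 uM; baseline from regression intercept, normalized to AFC standard curve.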
TSHR ag: agonists of human thyroid stimulating hormone receptor | Potency, µM (top dose mostly 57.1 µM), for the others: at the top dose activation, usual class: activators | P16473 | HEK293-CNG-TSHR cells (CNG channel as cAMP sensor), membrane potential dye, cAMP | 73,000 compounds, 0.48% hits | AID 926; active = well fitted activation curve of enough size with the parental cells flat; inconclusive = any curve in the parental cells; inactive = parental cells flat and receptor cells flat or falling; note: potency is the fitted concentration of half-maximal effect; % of control where 0% means no effect; weak receptor curves with flat parental cells got no call and are not listed
Target sequence (P16473 whole entry, looked up): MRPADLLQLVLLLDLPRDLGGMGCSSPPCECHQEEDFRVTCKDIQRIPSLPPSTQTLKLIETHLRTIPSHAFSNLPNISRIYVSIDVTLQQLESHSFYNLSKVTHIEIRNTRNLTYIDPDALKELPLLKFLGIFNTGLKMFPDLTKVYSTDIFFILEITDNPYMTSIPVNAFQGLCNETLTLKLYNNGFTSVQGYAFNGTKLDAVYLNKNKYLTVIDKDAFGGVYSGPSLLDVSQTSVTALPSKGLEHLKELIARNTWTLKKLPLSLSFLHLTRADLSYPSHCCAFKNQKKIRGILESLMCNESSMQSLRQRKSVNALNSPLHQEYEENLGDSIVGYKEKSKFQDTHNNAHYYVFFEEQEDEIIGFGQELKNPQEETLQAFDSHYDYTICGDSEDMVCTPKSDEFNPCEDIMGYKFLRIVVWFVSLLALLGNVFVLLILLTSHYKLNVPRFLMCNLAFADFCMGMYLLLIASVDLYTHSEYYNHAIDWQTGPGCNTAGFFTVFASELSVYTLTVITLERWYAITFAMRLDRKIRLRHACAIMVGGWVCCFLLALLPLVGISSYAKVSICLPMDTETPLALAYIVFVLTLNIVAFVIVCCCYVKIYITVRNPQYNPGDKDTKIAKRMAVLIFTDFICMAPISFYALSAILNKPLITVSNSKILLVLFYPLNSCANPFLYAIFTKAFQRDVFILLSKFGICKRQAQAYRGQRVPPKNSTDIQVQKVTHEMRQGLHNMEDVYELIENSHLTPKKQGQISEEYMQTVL
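HEK 293 cells stably expressing TSHR and a cAMP-gated CNG channel; parental CNG-only cells as counterscreen. Cells preloaded 60 min with membrane potential dye plus 100 uM RO 20-1724, then compound 30 min; fluorescence read at 590 nm.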
An asterisk follows results filed as active; i = inactive; ? = inconclusive; · = no result given; & = joins results of further samples; [ ] = another dose, or the depositor's remark. A portion of the library. The share of hits here may be higher or lower than overall.

SMILES	Resorufin fluor	A647 fluor	A488 autofl	AID923	TSHR ag
O[C@@H](c1cc([C@@]23C[C@H]4CC[C@@H]2C[C@H](C4)C3)nc2c(Cl)cc(Cl)cc12)[C@@H]1CCCCN1	i	7.6e-09	i	-4.7%[11.5 µM]	-5%[11.4 µM]
O=C(O)COCc1nc2ccccc2[nH]1	i	3.9e-08	i	0.1%	5%
Cc1ccccc1CSCCNC(=O)CN(c1ccc2c(c1)OCO2)S(C)(=O)=O	i	4.7e-08	i	-1.1%	20%
CCCC(O)(CCN(C)C)c1ccc(OC)cc1 (stereo not drawn)	i	1.4e-09	i	2.9%	-2%[11.4 µM]
COc1cccc2cc3c(=O)n(-c4ccccc4)nc-3oc12	·	·	·	-1.1%	-9%
Cc1nc2nc(-c3ccccc3)[nH]n2c(=O)c1Cc1ccccc1	i	1.6e-08	i	-0.5%	-2%
O=c1c(CCc2ccccc2)nc2cnc(N3CCNCC3)nc2n1Cc1cccs1	i	1e-09	i	15%	2%
O=c1c2ccccc2c(C=NCCO)c(O)n1-c1ccccc1	i	2.1e-08	i	0.6%	-2%
COc1ccc(C2(C(=O)NC(C)C)CCCC2)cc1OC	i	1.3e-08	i	-0.6%	13%
O=C1NC(=O)C(c2ccccc2)(c2ccccc2)N1	i	1e-09&2.9e-08	i	-0.5%&1.4%&-0.9%	1%&8%
COc1ccccc1CN1CC(C(=O)NCC2CCCO2)CC1=O (stereo not drawn)	i	1e-09	i	-0.9%	6%
CCn1cc(C(=O)NCC2CCCO2)c(=O)c2cc(S(=O)(=O)N(C)C)ccc21 (stereo not drawn)	·	·	·	0.8%	?
CC(=O)OC[C@@H]1O[C@@H](O/N=C2/C[C@@H](O)[C@@H](O)[C@@H]3[C@@H]4C(=O)N(Cc5ccccc5)C(=O)[C@H]4CC[C@H]23)[C@H](OC(C)=O)[C@H](OC(C)=O)[C@@H]1OC(C)=O	·	·	·	-0.3%[11.5 µM]	-3%[11.4 µM]
COc1ccc(C(=O)CSc2nnc(-c3ccc(C)cc3)o2)cc1	i	2.5e-08	i	1.1%	?
Cc1cc(C(=O)CSc2nncs2)c(C)n1-c1c(C)n(C)n(-c2ccccc2)c1=O	i	7.3e-09	i	-0.1%	6%
C=CCNc1nc(-c2ccc(O)c(C(N)=O)c2)cs1	i	2.5e-09	i	·	·
Cc1ccc2[nH]c(=O)c(CN(CCCN3CCOCC3)C(=O)Nc3cccc(Cl)c3)cc2c1	i	4e-09	i	1.4%	15%
COc1ccc(NS(=O)(=O)c2cc(C)ccc2C)cc1	i	1e-09	i	0.8%	-1%
Cn1cccc1Cc1nnc(SCC(=O)NCC2CCCO2)n1CCc1ccccc1 (stereo not drawn)	i	4.4e-09	i	1.7%	1%
COc1ccccc1NC(=O)CN(C)S(=O)(=O)c1ccc(F)cc1	i	2e-08	i	1.4%	-4%
Cc1cccn2c(=O)c3cc(C(=O)NCCCN4CCOCC4)n(C)c3nc12	·	·	·	3.6%	2%[11.4 µM]
COc1cccc(NC(=O)CSc2nc3n[nH]c(C)c3c(=N)n2-c2cccc(OC)c2)c1	i	1e-08	i	-0.1%	6%
C#CCCCO/N=C1/C[C@@H](O)[C@@H](O)[C@@H]2[C@@H]3C(=O)N(CC)C(=O)[C@H]3CC[C@@H]12	·	·	·	-1.8%[11.5 µM]	-1%[11.4 µM]
CCn1c(SCC(=O)Nc2cc(F)ccc2C)nnc1-c1ccccc1O	i	2.1e-08	i	-1.3%	-3%
COc1ccc(N2CSC3=C(C#N)C(c4ccc(OC)c(OC)c4)CC(=O)N3C2)c(OC)c1 (stereo not drawn)	·	·	·	13%	-1%
C=CCNC(=O)C1CC(c2cccc(OC)c2)=NO1 (stereo not drawn)	i	1e-09	i	-1.1%	-4%
COc1ccccc1NC(=O)C(C)NS(=O)(=O)c1ccccc1 (stereo not drawn)	i	2.7e-09	i	0.3%	0%
CCc1cccc(NC(=O)Nc2cccs2)c1	i	3.9e-08	i	3.7%	-4%[11.4 µM]
O=C(c1cccnc1)N1CCC(c2nc3ccccc3[nH]2)CC1	i	3e-08	i	1.1%	-1%
COc1ccc2c(c1)N(C(=O)CSc1n[nH]c(C)n1)C(C)(C)C=C2C	i	2.8e-08	i	-0.9%	14%
O=C(Oc1ccccc1)N1CCC2(CC1)CCN(c1ccncc1)CC2	i	2.4e-08	i	0.3%	?
CC(=O)/C(C[N+]1(C)CCCCC1)=N\O	i	1e-09	i	-1.2%	?
O=C(Nc1ccccc1)N(C1=NCCCCS1)c1ccccc1	i	1.3e-09	i	0.3%	-1%
COCCN1Cc2cccc(C(=O)Nc3c(C)cc(C)cc3C)c2C1=O	i	2.5e-08	i	1.3%	12%
COc1ccc2sc(C)nc2c1NC(C)=O	i	1.2e-08	i	-0.2%	1%
O=C(c1cn(-c2ccccc2)nc1-c1ccccc1)N1CCOCC1	i	6.2e-09	i	-0.4%	8%
Cc1noc(C)c1S(=O)(=O)N1CCCC(C(=O)NCCC2=CCCCC2)C1 (stereo not drawn)	i	1e-09	i	0.5%	1%
C[C@H](CO)NC(=O)[C@@H]1C[C@H]1[C@@H](NP(=O)(c1ccccc1)c1ccccc1)c1ccccc1	·	·	·	0.3%	?
CN(C)S(=O)(=O)c1ccc2c(c1)C(CC(=O)O)NC2=O (stereo not drawn)	i	3e-08	i	1.3%	-3%
O=c1/c(=C/c2cccc3ccccc23)sc2ncnn12	i	2.1e-08	i	1.5%	12%
CN(C(=O)C(Cl)Cl)c1ccc(OC(=O)c2ccco2)cc1	i	1e-09&1e-09	i	-2.5%[25.7 µM]	19%[25.6 µM]
CC(NC(=O)Cn1ccsc1=N)C12CC3CC(CC(C3)C1)C2 (stereo not drawn)	i	7.4e-09	i	-2.0%	11%[11.4 µM]
O=C(c1cccs1)N(Cc1nc2sc3c(c2c(=O)[nH]1)CCCC3)C1CCCC1	i	1.2e-09	i	2.2%	?
COc1ccc(CNc2ccc(-c3ccc(OC)cc3)nn2)cc1	i	1e-09	i	0.2%	12%
COc1cccc(CNC(=O)CCNS(=O)(=O)c2cccs2)c1	i	1e-09	i	-0.7%	-6%[11.4 µM]
CCOC(=O)C1=C(C)N=C2SC(C)C(=O)N2C1c1ccc(OC(C)=O)c(OC)c1 (stereo not drawn)	i	2.1e-08	i	·	·
COC(=O)c1c(C)oc(C)c(C(=O)OC)c1=O	i	2.6e-08	i	3.4%	3%
Cc1cc2oc(=O)c3c(c2cc1OC(=O)c1ccco1)CCCC3	i	4.6e-09	i	-1.4%	?
CC1CC(N(C(=O)C2CC2)c2ccccc2)c2ccccc2N1C(=O)C1CC1 (stereo not drawn)	i	8.8e-09	i	2.6%	?
CCCc1nnc(NC(=O)CC(=O)OCC)s1	·	·	·	-0.7%	-3%
O=C(c1ccc2c3c(cccc13)C(=O)N(O)C2=O)N1CCCCC1	i	2.3e-08	i	·	·
Cn1c(=O)c2[nH]c(CCCCC(=O)O)nc2n(C)c1=O	i	2.1e-09	i	2.1%[11.5 µM]	5%[11.4 µM]
O=C(c1ccco1)N1CCN(C(c2ccccc2F)c2nnnn2Cc2cccs2)CC1 (stereo not drawn)	i	7.2e-09	i	0.4%	19%
Cc1cc(C(=O)CSc2nc3ccccc3c(=O)[nH]2)c(C)n1C	i	2.6e-09	i	0.1%	?
CCNC(=O)CCCOc1ccc(Cl)cc1Cl	·	·	·	1.7%	?
CCn1c(SCC(=O)Nc2cccc(NC(C)=O)c2)nnc1C(C)C	i	4.4e-08	i	0.6%	0%
CCC(C)(C(=O)NC1CCCC1)N(C(=O)c1cnccn1)c1c(C)n(C)n(-c2ccccc2)c1=O (stereo not drawn)	i	2.1e-08	i	0.8%	4%
N#Cc1cccc(-c2nc(NCc3cccs3)c3ccccc3n2)c1	i	9.4e-09	i	0.6%	23%
CS(=O)(=O)N1CCC2(CCCN(c3ncccn3)C2)CC1	i	2.8e-09	i	0.5%	6%
CN(c1ccc(C(=O)N2CCc3ccccc3C2)cc1)S(C)(=O)=O	i	1e-09	i	-0.8%	1%

Looked up above:
Reading of `COC(=O)c1c(C)oc(C)c(C(=O)OC)c1=O` under TSHR ag: 3%
Reading of `CCOC(=O)C1=C(C)N=C2SC(C)C(=O)N2C1c1ccc(OC(C)=O)c(OC)c1` (stereo not drawn) under A647 fluor: 2.1e-08

5 consecutive compounds out of the list so far, quoted:
SMILES	Resorufin fluor	A647 fluor	A488 autofl	AID923	TSHR ag
CN(C(=O)C(Cl)Cl)c1ccc(OC(=O)c2ccco2)cc1	i	1e-09&1e-09	i	-2.5%[25.7 µM]	19%[25.6 µM]
CC(NC(=O)Cn1ccsc1=N)C12CC3CC(CC(C3)C1)C2 (stereo not drawn)	i	7.4e-09	i	-2.0%	11%[11.4 µM]
O=C(c1cccs1)N(Cc1nc2sc3c(c2c(=O)[nH]1)CCCC3)C1CCCC1	i	1.2e-09	i	2.2%	?
COc1ccc(CNc2ccc(-c3ccc(OC)cc3)nn2)cc1	i	1e-09	i	0.2%	12%
COc1cccc(CNC(=O)CCNS(=O)(=O)c2cccs2)c1	i	1e-09	i	-0.7%	-6%[11.4 µM]

Further records follow.
SMILES	Resorufin fluor	A647 fluor	A488 autofl	AID923	TSHR ag
Cn1nnc(NC(=O)c2cccc(F)c2)n1	i	2.6e-08	i	0.4%	-2%
CC(C)(C)Oc1ncc(Br)c(OC(C)(C)C)n1	i	2.9e-09	i	0.9%	1%
Cc1cccc(NC(=O)COc2ccccc2)c1	i	3.1e-08	i	3.3%	11%
Cc1csc2nnc(N)n12	i	1e-09	i	1.6%	0%
CC(=O)NCCn1c(SCC(=O)OCc2ccccc2)nc2ccccc2c1=O	i	1e-09	i	-1.0%	14%
COc1ccc(-c2cc(NCc3ccccn3)n3ncnc3n2)cc1	i	5.1e-08	i	-0.1%	?
CC(C)Cc1nc2oc3c(N4CCN(C)CC4)ncnc3c2c2c1CCCC2	i	1.2e-09	i	3.2%	3%
CCOc1ccc(N(CC(=O)NCCSc2ccccn2)S(C)(=O)=O)cc1	·	·	·	-3.5%	10%
COc1cccc(-n2c(SCC(=O)NC3CCCCC3)nc3n[nH]c(C)c3c2=N)c1	i	1.9e-08	i	0.0%	7%
COc1cc(C(=O)NC2=NCCS2)ccc1OCc1c(C)noc1C	i	5.8e-09	i	1.4%	-7%
CCOC(=O)C1CCN(c2ncnc3c2[nH]c2cccc(OC)c23)CC1	i	3.8e-08	i	-0.9%	-26%
CCOC(=O)CCc1c(C)c2ccc(OCC(=O)OC(C)C)cc2oc1=O	i	1.5e-08	i	0.9%	6%
CC(=O)c1ccc(Oc2cc(C)nc(-n3nc(C)cc3C)n2)cc1	i	2.7e-08	i	-2.3%	?
O=C(CSc1nnc(-c2ccccc2)c(-c2ccccc2)n1)N1CCOCC1	i	1e-09	i	·	·
S=c1[nH]nc(COc2ccc(Cl)cc2)o1	i	4e-09	i	0.0%	9%
Nn1c(SCC(=O)Nc2ccc3c(c2)OCCO3)nnc1-c1ccccn1	i	1e-09	i	-1.4%	1%
O=C(Cc1ccc(S(=O)(=O)N2CCCC2)s1)Nc1nc2c(s1)CCCC2	i	1.1e-09	i	5.5%	-3%
COc1ccc(CNC(=O)C2CCCN(S(=O)(=O)c3cnc[nH]3)C2)cc1 (stereo not drawn)	·	·	·	2.9%	-1%
COC(=O)c1[nH]c2ccc(C)cc2c1NC(=O)CN1CCC(C)CC1	i	6.8e-09	i	-1.3%	8%
Cc1ccc(C(c2nnnn2Cc2cccs2)N2CCN(C(=O)c3ccco3)CC2)cc1 (stereo not drawn)	i	2.2e-08	i	0.3%	?
CCCc1nnc(NC(=O)CCC(=O)N2CCCCC2CC)s1 (stereo not drawn)	i	1e-09	i	-0.2%	9%
COc1cccc(NC(=O)Nc2cccs2)c1	i	1.9e-08	i	0.9%	-7%

Screens (PubChem BioAssay)
